# MgrA DNA FP = S. aureus MgrA-DNA binding modulation. fluorescence polarization. inhibition, %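 (about 10 µg/mL by stock and volumes)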. 0.13% of 84,000 active;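 active = above 50% in either of two replicates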;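 also: 0% = protein plus DNA without compound and 100% = DNA alone without protein; higher means less MgrA bound to DNA so lower polarization; one replicate is shown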
# Sa helicase inh = blocks Staphylococcus aureus DNA helicase; purified S. aureus helicase, fluorescence unwinding assay; about half of the hits fall short of the stated cut; inhibition, %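 (tested at about 80 µM)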; 0.05% of 120,000 active;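 active = both duplicates at 50% or more, or one of them with a favoured structure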;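 also: 0% = mean of negative control wells and 100% = mean of positive control wells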
# * = called active by the depositor; · = not tested or not shown. These rows are one share of the data, so the mix of outcomes need not match the whole.
canonical_smiles,MgrA DNA FP,Sa helicase inh
CCN(CC)S(=O)(=O)c1ccc(NC(=O)COc2c(OC)cccc2OC)cc1,·,-12.0
COc1ccc(/C=C2/N=C(c3ccccc3)OC2=O)cc1,0.1,-14.0
O=C(NCc1ccccc1)N1CC2C=CC1C2 (stereo not drawn),-0.3,10.0
COc1ccc(-c2cc(C(=O)NCc3ccc4c(c3)OCO4)c3ccccc3n2)cc1OC,-1.5,·
O=c1[nH]cc(N2CCOCC2)c(=O)[nH]1,-0.1,-1.0
Cc1ccc(Nc2nnc(C)c(=O)[nH]2)cc1,·,22.0
CC(C)Oc1ccc(OCCSc2nc3ccccc3n2CC(=O)O)cc1,0.4,·
CC(C)CCn1cnc2c1c(=O)n(CC(=O)N1c3ccccc3NC(=O)C1(C)C)c(=O)n2Cc1ccccc1,·,3.0
CC(=O)Oc1ccc2c(=O)c(-c3nc4ccccc4n3C)coc2c1,·,9.0
CCC(=O)Nc1ccc2nc(SCc3nc4ccccc4[nH]3)sc2c1,·,7.0
Cc1cc2c(cc1S(=O)(=O)N1CCc3ccccc31)n(C)c(=O)c(=O)n2C,·,10.0
Cc1ccc(C)n1-c1ccc(C(=O)NNS(=O)(=O)c2ccc(Cl)cc2)cc1,-1.2,·
O=C(NCc1ccc(-c2cccs2)s1)c1c(Cl)cccc1Cl,0.2,·
O=C(OCC(=O)N1CCCC1)c1ccc(OC(F)(F)F)cc1,-1.2,-7.0
O=c1[nH]nc(CSCc2csc(-c3ccccc3)n2)[nH]1,-2.0,3.0
CCc1ccc(CC(=S)N2CCOCC2)cc1,-0.2,8.0
Cc1nc2sc(C(c3ccccc3Cl)N(C)Cc3ccccc3)c(O)n2n1 (stereo not drawn),·,-16.0
Cc1cc(NS(=O)(=O)c2ccc(NC(=O)c3cccs3)cc2)no1,3.4,·
O=S(=O)(c1ccccc1Oc1ccc(Cl)cc1Cl)N1CCCCC1,-1.1,·
Cc1cc(C)c2c(=O)[nH]c(SCc3ccccc3C)nc2n1,1.8,6.0
CC(Sc1nc2ccccc2s1)C(=O)N1CCOCC1 (stereo not drawn),·,3.0
c1ccc2c(c1)CCN2c1nc2ccccc2n2cnnc12,0.2,11.0
Cc1cccc(OCCn2c(=O)sc3ccccc32)c1,·,7.0
Cc1ccc(Sc2oc(/C=N/n3cnnc3)cc2Br)cc1,1.4,8.0
CN1CCC(OC(=O)c2ccc3c(c2)OCCO3)CC1,-6.1,-4.0
CS(=O)(=O)N(Cc1ccccc1)c1ccc(C(=O)NC2CCCCC2O)cc1 (stereo not drawn),-1.7,16.0
N/C(CSc1cccs1)=N\OC(=O)Nc1ccccc1,·,-6.0
CCOC(=O)c1c(NC(=O)CCN2CCOCC2)sc2c1CCC(C)C2 (stereo not drawn),·,-9.0
O=C(NCc1ccccc1)c1nccnc1CO,·,10.0
Nc1nonc1C(=O)NCCNCc1ccncc1,·,19.0
O=C1S/C(=C\C=C\c2ccco2)C(=O)N1c1ccccc1,·,4.0
O=C1[C@H](CCC(O)c2ccc(F)cc2)[C@@H](c2ccc(O)cc2)N1c1ccc(F)cc1 (stereo partly drawn),1.9,·
O=C(CC(C(=O)N1CCc2ccccc21)n1ccnc1)NCc1ccccc1 (stereo not drawn),3.5,6.0
Clc1ccc(Cn2ncc3c(NCc4cccnc4)ncnc32)cc1,·,-76.0
Cc1nc2ccc(F)cc2c2c1CCN2c1ccc(Cl)cc1,-1.2,·
NC(=O)C1CCN(C(=O)c2ccc(C(F)(F)F)cc2)CC1,-1.4,2.0
CCOc1ccc(NC(=O)N2CC(C)OC(C)C2)cc1 (stereo not drawn),-2.5,3.0
O=C(COC(=O)C1CCCCC1)Nc1cc(Cl)cc(Cl)c1,-2.4,-4.0
CCCNC(=O)N1CC(CC)Oc2ccccc21 (stereo not drawn),·,10.0
OCCOc1ccccc1O,·,12.0

# Given with two lines to a compound: entries from further up
# Below each SMILES – MgrA DNA FP | Sa helicase inh
CCCNC(=O)N1CC(CC)Oc2ccccc21 (stereo not drawn)
→ · | 10.0
Cc1nc2ccc(F)cc2c2c1CCN2c1ccc(Cl)cc1
→ -1.2 | ·

# Continued:
canonical_smiles,MgrA DNA FP,Sa helicase inh
c1ccc(C(CN2CCOCC2)c2ccccc2)cc1,-0.3,21.0
CCN(CC)C(=O)Cn1cc(SCc2ccccc2)c2ccccc21,0.5,8.0
Cc1cc(C)cc(NC(=O)N(CCC#N)Cc2ccccc2)c1,·,6.0
O=C(NCc1cc(F)cc2c1OCOC2)c1sc2ccccc2c1Cl,-2.8,·
CC(C)C1CCC(C)C(C(O)c2ccc(-c3ccccc3)cc2)C1=O (stereo not drawn),1.1,-13.0
CC(=Nc1ccc(C(=O)O)cc1)c1cc2c(=O)n(C)c3ccccc3c2oc1=O,-1.2,12.0
Cc1ccc(NC(=S)N(Cc2ccco2)Cc2cc3cc(C)c(Cl)cc3[nH]c2=O)cc1,-0.7,9.0
Cc1nn(CN2CCCC2c2cccs2)c(C)c1S(=O)(=O)N1CCCCC1 (stereo not drawn),·,9.0
NCc1cc(C2CC2)n[nH]1,-5.5,0.0
COc1ccc(C2=NN3C(=O)c4c(ccc(OC)c4OC)C3C2)cc1 (stereo not drawn),0.1,10.0
COC(=O)C1=C(C)Nc2[nH]ncc2C1c1ccccc1 (stereo not drawn),-11.3,·
O=C(O)C1C2C3C=CC(C3)C12 (stereo not drawn),-0.6,4.0
CC1(C)C2CC[C@](C)(C2)C1NC(=O)C1CCCCC1 (stereo partly drawn),-0.7,·
O=C(O)c1cc(-c2ccccc2)c(C(F)(F)F)s1,-3.2,·
Cn1c(O)c(C=Nc2cccc3ccccc23)c2ccccc21,9.8,-2.0
O=C(O)c1nn(-c2ccc(Cl)cc2Cl)c(=O)cc1O,·,15.0
O=C1CC(=O)CC(c2ccco2)C1,0.1,·
CC(=O)OCc1ccc(/C=C(\C#N)S(=O)(=O)c2cccs2)o1,-1.4,·
CC1CCC(C(=O)NC(C(=O)N2CCc3ccccc3C2)C(C)C)CC1 (stereo not drawn),·,4.0
COc1ccccc1NCC(=O)N/N=C1/CCCCC1C (stereo not drawn),·,-24.0
CCc1ccc(C(=O)CN2C(=O)CN(C)C2=O)cc1,·,17.0
CCOC(=O)c1c(NC(=O)c2ccc(OC)cc2)sc(C(=O)Nc2cc(C(F)(F)F)ccc2Cl)c1C,-1.7,·
Cc1cc2c(cc1S(=O)(=O)NC1CCCCCCC1)OCC(=O)N2,·,24.0
CCc1nc2ccccc2c(C(=O)OCC(=O)Nc2ccc(S(=O)(=O)N3CCOCC3)cc2)c1C,·,16.0
O=C(O)C1C2CC=CC2c2cc(Br)cc3c2N1CC1CC=CC31 (stereo not drawn),·,7.0
CC1(C)CC(=O)C(Sc2ccc(Br)cc2)=C(O)C1,·,-2.0
C/C=C(/C)C(=O)O[C@@H]1[C@H](OC(C)=O)[C@@]2(CO)C(CC1(C)C)C1=CCC3[C@@]4(C)CC[C@H](O[C@@H]5O[C@H](C(=O)O)[C@@H](O[C@@H]6O[C@H](CO)[C@@H](O)[C@H](O)[C@H]6O)[C@H](O)[C@H]5O[C@@H]5O[C@H](CO)[C@@H](O)[C@H](O)[C@H]5O)[C@](C)(CO)C4CC[C@@]3(C)[C@]1(C)C[C@H]2O (stereo partly drawn),9.7,·
Cc1ccc(-c2nnc(N3CCCCC3)c3ccccc23)cc1C,0.8,15.0
COc1ccc(CCn2c(-c3ccco3)nc3ccccc3c2=O)cc1OC,-0.7,12.0
O=C(c1ccc(N2C(=O)CCC2=O)cc1)N1CCc2ccccc2C1,·,21.0
N#Cc1ccccc1CSc1nc2ccccc2s1,·,-17.0
COc1ccc(Cc2nnc(C(=O)N3CCN(c4ccccc4OC)CC3)o2)cc1OC,5.0,7.0
COc1ccc(C(=O)NC2CCN(Cc3c(F)cccc3Cl)CC2)cc1OC,-3.6,·
O=C(O)c1ccc(NS(=O)(=O)c2ccc3c4c(cccc24)C(=O)N3)cc1,2.5,4.0
CCOc1cc(C(=S)N2CCCC2)ccc1OCc1ccccc1F,1.8,4.0
O=C1/C(=C\c2cc(Br)c(O)c([N+](=O)[O-])c2)SC(=S)N1c1ccc([N+](=O)[O-])cc1,-0.7,·
O=C1CC(=O)c2ccc3c4c(ccc1c24)C(=O)CC3=O,93.1*,16.0
COc1ccc(CN2CCC(C(=O)O)CC2)cc1,-1.8,3.0
O=C(Cn1ncc2ccccc21)Nc1ccccc1Br,·,12.0
O=S(=O)(Cc1ccccc1)c1cnc2ccccc2n1,-0.5,·
CN1c2ccccc2C(=O)NC1c1cc(Br)cs1 (stereo not drawn),-0.1,·
Cc1ccc(-n2ncc3c(=O)[nH]c(SCc4ccccc4F)nc32)cc1,·,5.0
CCCCNc1nc2ccccc2n1CC(N)=O,·,6.0
O=C(CC1(O)C(=O)Nc2ccccc21)c1ccccc1O (stereo not drawn),-0.6,20.0
CN(C)c1ccc(CCNC(=O)c2ccco2)cc1,-4.3,-1.0
O=C(Nc1ccccc1)Nc1ccccc1N1CCOCC1,·,-9.0
CCOC(=O)C1C(=O)NC(N2CCOCC2)=NC1c1ccccc1 (stereo not drawn),0.2,1.0
CC1CCCCN1C(=O)COc1ncnc2sccc12 (stereo not drawn),·,9.0
Cc1sc2ncnc(Nc3ccc(F)cc3)c2c1C,·,-28.0
c1ccc2c(-c3nnc(CN4CCOCC4)o3)cccc2c1,1.8,·
CCOC(=O)C1=NN(C(=O)COc2ccccc2)C(O)(c2ccc(Br)cc2)C1 (stereo not drawn),-0.7,11.0
CCc1ccc(-c2cc(C)no2)cc1S(=O)(=O)N1CCN(C2CCCCC2)CC1,·,19.0
Cc1cc(NC(=O)CN2C(=O)CCC2=O)no1,·,8.0
Cc1ccn2c(=O)c(NC(=O)c3ccccc3)cnc2c1,·,23.0
c1ccc(Oc2cnc3ccccc3n2)cc1,0.5,·
CC(C)(Oc1ccc(Cl)cc1)C(=O)Nc1ccc(Cl)cn1,-1.6,16.0

# (further entries)
canonical_smiles,MgrA DNA FP,Sa helicase inh
COc1ccccc1N1CCN(C(=O)c2cnn3c2NC(c2ccc(Br)cc2)CC3C(F)(F)F)CC1 (stereo not drawn),-1.2,·
O=C(CCc1ccccc1)NCc1ccccn1,3.2,2.0
COC(CNC(=O)C1CCN(S(=O)(=O)c2cccc3nsnc23)CC1)OC,0.2,-5.0
O=C(c1ccc(S(=O)(=O)N2CCOCC2)o1)N1CCOCC1,·,-39.0
FC(F)(F)c1cc(Cl)c2nc(-c3n[nH]c(=S)o3)cn2c1,·,-36.0
COc1ccc(-c2noc(CSCC(=O)O)n2)cc1OC,·,-19.0
CCCCC(=O)Nc1ccc(I)c(C)n1,-0.6,-6.0
CCOC(=O)c1[nH]c(C)cc1C,·,-3.0
Cn1c(O)c(N=NC(=O)CNC(=O)c2ccccc2)c2ccccc21,·,-3.0
O=C(CSC1=NC(=O)C(c2ccccc2)C(=O)N1)NC1CCCCC1 (stereo not drawn),1.6,6.0
COc1ccccc1N1CCN(Cc2c(O)ccc3ccccc23)CC1,·,-16.0
O=C(Cn1ncc2ccccc21)Nc1ccc(Cl)cn1,·,0.0
NC(=O)c1ccccc1Sc1ccccc1C(N)=O,·,7.0
CC(=O)Nc1sc2c(c1CN1CCc3ccccc3C1)CCCC2,·,-27.0
CC(C)CNC(=O)c1cc2sccc2n1Cc1ccccc1,2.6,-7.0
NC(=O)CSc1ncccc1C(=O)O,·,-7.0
Cc1ccc(Cn2nnc3c(=O)n(Cc4cccc(C)c4)cnc32)cc1,2.4,20.0
Cc1cccn2c(=O)c(/C=N/O)c(Nc3ccc(Cl)cc3)nc12,·,-1.0
O=C1CCCC2=C1C(c1ccncc1)Nc1ccccc1N2 (stereo not drawn),1.4,4.0
Clc1ccccc1Cn1c(CSC2=NCCN2)nc2ccccc21,7.9,8.0
O=C1CC(NNc2ccccc2)C(=O)N1 (stereo not drawn),·,6.0
COc1cc(S(=O)(=O)N2CCN(c3c(C)cc(C)cc3C)CC2)ccc1F,-0.7,-9.0
Cc1c(C(=O)Nc2ccccc2Cl)oc2c1C(O)CC(C)(C)C2 (stereo not drawn),1.3,8.0
N#CC(C#N)=C1CCc2ccccc21,·,-26.0

# 4 records drawn at random from those above, as already listed:
canonical_smiles,MgrA DNA FP,Sa helicase inh
Cc1cc2c(cc1S(=O)(=O)NC1CCCCCCC1)OCC(=O)N2,·,24.0
O=C(NCc1cc(F)cc2c1OCOC2)c1sc2ccccc2c1Cl,-2.8,·
COc1ccc(CN2CCC(C(=O)O)CC2)cc1,-1.8,3.0
CC(=O)OCc1ccc(/C=C(\C#N)S(=O)(=O)c2cccs2)o1,-1.4,·

# Next compounds follow:
canonical_smiles,MgrA DNA FP,Sa helicase inh
O=C1CCC/C1=c1/s/c(=C/c2cccnc2)c(=O)n1-c1ccccc1,4.5,0.0
O=C(Cn1c(=O)n(CC(=O)NC2CCCC2)c(=O)c2ccccc21)Nc1ccc(Br)cc1,0.3,0.0
Cn1c(=O)n(C)c2cc(/C=N/NC(=O)Nc3ccccc3)ccc21,-1.1,10.0
CCOC(=O)N1c2ccccc2C=CC1OCC (stereo not drawn),·,8.0
Nc1nnc(SCC(=O)N2CCCCC2)s1,-3.3,4.0
O=S(=O)(CC(CN1CCCCC1)N1CCCCC1)c1ccccc1 (stereo not drawn),-2.9,8.0
N#C/C(=N\Nc1ccccc1Oc1ccc(Cl)cc1Cl)C(=O)N1CCCC1,2.0,·
CON(C)c1ncnc2scc(-c3ccc(C)cc3)c12,·,-3.0
